VDR inh = Inhibitors of the vitamin D receptor (VDR): qHTS; Vitamin D3 receptor (Homo sapiens), P11473; VDR-SRC2-3 peptide fluorescence polarization, 2 h; Potency, µM, without a hit: max response, negative = inhibition, hits mostly inhibitors; actives 0.93% (n = 400,000); AID 504847, 2011; active = well fitted inhibition curve with a large enough effect; inconclusive = small, poorly fitted or top-dose-only effect, or another doubt; inactive = no such curve, though single readings can be large or run the other way; also: series mostly up to about 120 µM
Target sequence (P11473 whole entry, looked up): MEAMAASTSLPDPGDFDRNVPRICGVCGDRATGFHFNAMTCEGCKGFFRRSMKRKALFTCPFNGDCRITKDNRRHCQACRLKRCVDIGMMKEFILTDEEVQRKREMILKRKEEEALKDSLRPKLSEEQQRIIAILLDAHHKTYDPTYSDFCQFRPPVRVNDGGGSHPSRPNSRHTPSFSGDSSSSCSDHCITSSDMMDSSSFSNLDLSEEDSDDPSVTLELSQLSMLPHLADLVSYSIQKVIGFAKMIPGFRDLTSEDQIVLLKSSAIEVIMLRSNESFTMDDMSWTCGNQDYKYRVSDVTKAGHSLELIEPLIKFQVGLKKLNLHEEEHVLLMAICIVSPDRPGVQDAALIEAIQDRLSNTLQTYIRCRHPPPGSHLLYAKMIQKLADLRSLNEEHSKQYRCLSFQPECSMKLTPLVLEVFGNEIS
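After 23 nl compound addition and a short centrifugation, plates sat for 2 hours at ambient temperature; polarization of fluorescence then indicated loss of VDR binding to peptide SRC2-3.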
Active calls of the source: *; ? = inconclusive; & = joins results of further samples. % is scaled to controls: 0 for no effect and ±100 for the full control effect; potency is read from the fitted curve at half-maximal effect. Some of the compounds tested. The share of hits here may be higher or lower than overall.

entry	VDR inh	structure
1	-4%	COc1cccc(N(CC(=O)NCCSc2ccc(Cl)cc2)S(C)(=O)=O)c1
2	-4%	Cc1cc(Nc2ccc(C)c(Cl)c2)n2nc(-c3ccccc3)nc2n1
3	-3%	COC(=O)C1=C(C)N(Cc2ccccc2)C(=NCc2cccc(C(F)(F)F)c2)N[C@H]1c1cccc(F)c1
4	6%	COC(=O)c1ccc(NS(=O)(=O)c2cc(C)ccc2OC)cc1
5	10%	CCCCn1c(CN2CCN(C)CC2)nc2ccccc21
6	-8%	CCN(C(=O)Cn1cc(C(F)(F)F)ccc1=O)c1c(N)n(Cc2ccccc2)c(=O)[nH]c1=O
7	4µM*	O=C(O)C(S)[C@@H](S)C(=O)O (stereo not given in full)
8	2%	CCc1ccc(C(=O)COC(=O)C(CCSC)NC(=O)c2ccccc2)cc1 (stereo not given)
9	0%	O=C(COc1cccc2ccccc12)Nc1nc2ccccc2[nH]1
10	1%	O=C(Cc1cccc2ccccc12)Nc1cccnc1
11	-5%	Cn1ccnc1C(=O)c1ccc(Cl)c(S(=O)(=O)N2CCOCC2)c1
12	-4%	O=C(COc1ccccc1[N+](=O)[O-])N1CCN(S(=O)(=O)c2ccccc2)CC1
13	9%	CS(=O)(=O)N1CCC2(CCCN(c3ccccn3)C2)CC1
14	13%	COC(=O)c1cnc(NNS(=O)(=O)c2ccc(Cl)cc2)nc1C(F)(F)F
15	-2%	c1ccc(-c2ccccc2OCCCN2CCCCC2)cc1
16	89µM*	CC(=O)Nc1ccc(S(=O)(=O)NNc2ccc([N+](=O)[O-])cc2)cc1
17	8%	Cc1ccc(NC(=O)c2cnccn2)cc1
18	-3%	COCCn1c(=O)cnc2cnc(Nc3ccccc3)nc21
19	-11%	CN(CC(=O)Nc1cccc(F)c1)C(=O)CCc1nc2ccccc2c(=O)[nH]1
20	-2%	CC(NC(=O)CCc1ccccc1)c1ccc2c(c1)OCO2 (stereo not given)
21	-2%	COc1cccc(NC(=O)COC(=O)c2ccc3ccccc3n2)c1
22	-9%	Cc1c(CCC(=O)O)c(=O)oc2cc(OCc3ccccc3Br)ccc12
23	0%	O=C(Nc1ccncc1)c1c(F)cccc1F
24	-12%	Cc1ccc(C(C(=O)NC2CCCC2)N(C(=O)Cc2cccs2)c2ccc(C)c(C)c2)o1 (stereo not given)
25	-22%	COc1cc(C(=O)O)ccc1OCc1ccncc1
26	-11%	COCc1cc(=O)n2[nH]c(C)nc2n1
27	-5%	COc1cccc(C(=O)n2ccc(-c3cccs3)n2)c1
28	-3%	CC(=O)Nc1nnc(SCc2cc(=O)c(OC(=O)c3ccccc3)co2)s1
29	-12%	CCOC(=O)C1CCCN(CC(=O)Nc2nc(-c3ccccc3)cs2)C1 (stereo not given)
30	-8%	COc1ccc2cc(C(=O)C3CCCN(Cc4cccc(C)n4)C3)ccc2c1 (stereo not given)
31	17%	O=C(COc1cccc2ccccc12)NNC(=O)c1cccs1
32	-2%	CCCNC(=O)COC(=O)/C=C/c1ccc(C)o1

3 entries from above, as labelled records:
27. COc1cccc(C(=O)n2ccc(-c3cccs3)n2)c1
  VDR inh: -5%
28. CC(=O)Nc1nnc(SCc2cc(=O)c(OC(=O)c3ccccc3)co2)s1
  VDR inh: -3%
30. COc1ccc2cc(C(=O)C3CCCN(Cc4cccc(C)n4)C3)ccc2c1 (stereo not given)
  VDR inh: -8%

(listing goes on)
entry	VDR inh	structure
33	-7%	Cc1ccc(C(=O)N/N=C\c2cc3c(cc2Br)OCO3)s1
34	6%	CCOC(=O)C(NC(=O)CC)(Nc1ccc(S(=O)(=O)Nc2cc(C)on2)cc1)C(F)(F)F (stereo not given)
35	12%	COC(=O)c1cc(C)nc2c1c(=O)nc(SCc1ccccc1F)n2C1CC1
36	-5%	COc1ccccc1N1CCN(C(=O)CN2C(=O)COc3ccc(S(=O)(=O)N4CCC(C)CC4)cc32)CC1
37	0%	Cn1c(C(=O)N2CCC(C(=O)N3CCN(Cc4ccc5c(c4)OCO5)CC3)CC2)cc2sccc21
38	14%	CNC(=O)COc1ncnc2scc(-c3ccc(F)cc3)c12
39	-17%	CC(C(=O)c1ccc(-c2ccccc2)cc1)[n+]1cccc(C(N)=O)c1 (stereo not given)
40	?	O=c1[nH]c2ccc(Cl)cc2c(-c2ccccc2)c1SC(=S)N1CCCCC1
41	6%	CCOC(=O)CSc1nnc2n(C3CCCCC3)c(=O)c3c4c(sc3n12)CCCC4
42	-14%	N#Cc1ccc(CSc2nnc(NC(=O)CCc3nc4ccccc4c(=O)[nH]3)s2)cc1
43	6%	COC(=O)c1cc(Cc2ccc(N)c(C(=O)OC)c2)ccc1N
44	-18%	N#CC1=C(SCc2ccc(C#N)cc2)N=C(N)C(c2nc(-c3ccccc3)cs2)C12CCCCC2 (stereo not given)
45	4%	O=C(OCc1cc(=O)n2c(n1)sc1ccccc12)c1ccc2c(=O)n3c(nc2c1)CCC3
46	-15%	COc1ccc(S(=O)(=O)N2CCN(C(=O)c3cc(C)nc4ccccc34)CC2)cc1OC
47	-8%	COc1ccc(S(=O)(=O)N2CCCC2C(=O)Nc2ccc(C(C)=O)cc2)cc1 (stereo not given)
48	?	COc1ccc(NC(=O)c2cc([N+](=O)[O-])ccc2N2CCCC2)cc1
49	-27%	c1ccc2nc(N3CCOCC3)c(N3CCOCC3)nc2c1
50	3%	Nc1nnc(CSCc2ccc(Cl)cc2)s1
51	0%	CCOC(=O)c1c(-c2ccccc2)csc1NC(=O)c1cc(-c2ccc(C)c(F)c2)on1
52	21%	CCc1nnc(SCc2nc(-c3cccc(C)c3)oc2C)c2cc3sc(C)cc3n12
53	-5%	O=C(NC(=S)Nc1ccc2c(c1)OCCO2)c1ccco1
54	11%	O=C(NCc1ccc(F)cc1)c1ccc(CS(=O)Cc2ccc(Cl)cc2)o1 (stereo not given)
55	3%	Fc1ccc(CN2CCCCCC2)c(F)c1
56	-28%	Brc1ccccc1-n1nnc(-c2nccs2)n1
57	-25%	COc1ccc(CN(C)C(=O)Cn2cnc(C(=O)Nc3ccc(C)c(C)c3)n2)cc1OC
58	-11%	O=C(COc1ccc(Cl)cc1Cl)Nc1ccc(S(=O)(=O)NC2=NCCCCC2)cc1
59	-11%	COc1cc(S(=O)(=O)N2CCCCC2)c(OC)cc1Br
60	9%	O=S(=O)(CC(c1ccccc1)N1CCCCC1)c1ccc(Cl)cc1 (stereo not given)
61	11%	O=C(N/N=C/c1ccc([N+](=O)[O-])s1)c1cccc(Br)c1
62	-4%	CCOc1ccc(C(=O)c2cn(CC(=O)Nc3ccc(F)cc3)c3cc4c(cc3c2=O)OCO4)cc1
63	9%	Cc1nccn1CCN(C)Cc1cn(Cc2ccccc2)nc1-c1ccc2c(c1)OCO2
64	-12%	OC1CCN(C(=S)NCCc2ccccc2)CC1

Arranged by number of heavy atoms (low to high): some entries from above.
entry	VDR inh	structure
55	3%	Fc1ccc(CN2CCCCCC2)c(F)c1
56	-28%	Brc1ccccc1-n1nnc(-c2nccs2)n1
64	-12%	OC1CCN(C(=S)NCCc2ccccc2)CC1
61	11%	O=C(N/N=C/c1ccc([N+](=O)[O-])s1)c1cccc(Br)c1
60	9%	O=S(=O)(CC(c1ccccc1)N1CCCCC1)c1ccc(Cl)cc1 (stereo not given)
58	-11%	O=C(COc1ccc(Cl)cc1Cl)Nc1ccc(S(=O)(=O)NC2=NCCCCC2)cc1
62	-4%	CCOc1ccc(C(=O)c2cn(CC(=O)Nc3ccc(F)cc3)c3cc4c(cc3c2=O)OCO4)cc1

The list goes on:
entry	VDR inh	structure
65	-5%	COc1cccc(Nc2nnc(SCC(=O)N3CC(C)OC(C)C3)s2)c1 (stereo not given)
66	-10%	COc1ccc(OCc2nnc(SCC(=O)NC3CC3)n2C)cc1
67	-4%	COc1cc2cnc(Cl)nc2cc1OC
68	-5%	Cc1ccc(C(=O)NC2CCCC(C)C2C)cc1S(=O)(=O)N1CCCCC1 (stereo not given)
69	1%	Cc1ccc(NC(=O)Cc2nnc(N)s2)cc1
70	-6%	COc1ccc(NC(=O)CCN2C(=O)C3C4C=CC(C4)C3C2=O)cc1 (stereo not given)
71	-12%	Cc1cccc(NC(=O)CCCN2C(=O)c3ccccc3C2=O)n1
72	-2%	CCOC(=O)N1CCC(NC(=O)c2ccc3c(c2)N(Cc2ccccc2)C(=O)c2ccccc2S3=O)CC1 (stereo not given)
73	22%	O=C(Cc1ccccc1)NC1CCS(=O)(=O)C1 (stereo not given)
74	-4%	Cc1cc(C)cc(NC(=O)Cn2cc(C(=O)C3CCCCC3)c3ccccc32)c1
75	-5%	COc1ncccc1C(=O)N1CCC(n2nccc2NC(=O)CC(C)C)CC1
76	-16%	CCc1ccc(-c2c(C)sc(NC(=O)C3CCC3)c2C#N)cc1
77	-1%	O=C(Cn1c(=O)c(CNc2ccccc2)cc2cc3c(cc21)OCCO3)Nc1ccccc1Cl
78	2%	COc1cccc2c(O)cc(=O)n(C)c12
79	-3%	CCC(CO)N=C1CC(C)(C)CC(=O)/C1=C(/O)CCCN1C(=O)c2ccccc2C1=O (stereo not given)
80	3%	COc1ccccc1-n1c(SCC(=O)Nc2cccc(S(N)(=O)=O)c2)nc2ccccc2c1=O
81	-9%	Cc1ccc(-n2c(SCC(=O)N(C)C3CCS(=O)(=O)C3)nc3ccccc3c2=O)c(C)c1 (stereo not given)
82	1%	CCOC(=O)c1ccc(CN(Cc2ccc(C)cc2)S(=O)(=O)c2ccc(F)c(C(=O)Nc3ccc(C)c(F)c3)c2)cc1
83	-11%	COc1cc(OC)c2cc(-c3ccncc3)cnc2c1
84	?	COc1ccccc1S(=O)(=O)Cc1ccc(C(=O)NCCN(C)C)o1
85	0%	COc1ccc2c(c1)-c1nc(NC(=O)c3cc(Cl)ccc3OC)sc1CC2
86	0%	O=C(O)CCC(=O)NNc1nc2ccccc2nc1-c1ccccc1
87	-6%	Oc1[nH]c2ccccc2c1C=Nc1ccc2c(c1)OCO2
88	15%	NC(=O)c1ccsc1NC(=O)CSc1ncnc2sccc12
89	-15%	COc1cccc(C(=O)N/N=C/C(Br)=C/c2ccccc2)c1
90	13%	CCOC(=O)[C@@H]1[C@H]2COc3ccccc3[C@@H]2N2C(=O)N(c3ccc(Br)cc3)C(=O)[C@]12C
91	1%	COc1ccc(C(CC(=O)O)N2Cc3ccccc3C2=O)cc1OC (stereo not given)
92	6%	Cc1cccc(-c2nc(Cn3c(SCc4cc(C)ccc4C)nc4ccncc43)c(C)o2)c1
93	10%	Cc1ccc(NC(=O)COC(=O)c2c(C)nn(-c3ccccc3)c2C)cc1
94	-12%&6%	C=C1C[C@]23C[C@@]1(O)CC[C@H]2[C@@]12C=C[C@H](O)[C@@](C)(C(=O)O1)[C@H]2[C@@H]3C(=O)O
95	-5%	COc1cccc(COC(=O)c2c(C)nn(-c3ccccc3)c2Cl)c1OC
96	-2%	Cc1cc(C(=O)COC(=O)c2ccc3c(c2)OCO3)c(C)n1Cc1cccs1

Three entries from above, with tabs:
No.	smiles	VDR inh
94	C=C1C[C@]23C[C@@]1(O)CC[C@H]2[C@@]12C=C[C@H](O)[C@@](C)(C(=O)O1)[C@H]2[C@@H]3C(=O)O	-12%&6%
95	COc1cccc(COC(=O)c2c(C)nn(-c3ccccc3)c2Cl)c1OC	-5%
96	Cc1cc(C(=O)COC(=O)c2ccc3c(c2)OCO3)c(C)n1Cc1cccs1	-2%

Carrying on.
entry	VDR inh	structure
97	18%	O=C(CN(C(=O)c1csnn1)c1ccc(F)cc1)NCc1ccc(F)cc1
98	-12%	Cc1ccc(CNC(=O)CCCN2C(=O)c3cccnc3Oc3ccc(Cl)cc32)cc1
99	-9%	CCN1CCN(Cc2ccc(NC(=O)c3ccc(C)c(NC(=O)c4csc(-c5ccncc5)n4)c3)cc2C(F)(F)F)CC1
100	-14%	Cn1cc(C(=O)c2ccc(Cl)cc2Cl)cc1C=O
101	5%	COc1cc(NS(=O)(=O)c2c(C(=O)N3CCCCC3)c(C)n(C)c2C)cc(OC)c1OC
102	22µM*	CC1(C)CC(=O)C(C(C#Cc2ccccc2)C2=C(O)CC(C)(C)CC2=O)=C(O)C1
103	4%	CC1=NN(C(=O)CCCc2ccccc2)C(O)(C(F)(F)F)C1 (stereo not given)
104	8%	CCOc1ccccc1C(=O)n1nc(C)cc1C
105	-28%	CC(CCc1ccccc1)NC(=O)c1ccncc1 (stereo not given)
106	-7%	CN(CCC1CCCCO1)C(=O)CCc1nnc(C2CCCCC2)o1 (stereo not given)
107	-20%	COc1ccc(C2C(C(C)=O)=C(C)Nc3ncnn32)c(OC)c1OC (stereo not given)
108	-23%	CCOc1ccc(N(CC)C(=O)COc2cc(=O)n(CC)c3ccccc23)cc1
109	-1%	Cc1ccc(-n2c(=O)c3oc4ccccc4c3n(CC(=O)Nc3ccc(F)c(Cl)c3)c2=O)cc1C
110	-7%	CCCCc1nc2cc(C(=O)N3CCC(O)CC3)ccc2o1
111	-5%	CCSc1nsc(NC(=O)Nc2ccccc2Cl)n1
112	?	CC(C)OCCCNC(=S)Nc1ccc(S(N)(=O)=O)cc1

An excerpt of these results, with each value named:
106) CN(CCC1CCCCO1)C(=O)CCc1nnc(C2CCCCC2)o1 (stereo not given)
  VDR inh: -7%
107) COc1ccc(C2C(C(C)=O)=C(C)Nc3ncnn32)c(OC)c1OC (stereo not given)
  VDR inh: -20%

Next section
entry	VDR inh	structure
113	-14%	COC(=O)c1cc2sc(C)cc2n1Cc1ccccc1
114	-13%	Cc1cc(C)nc(SCc2ccc(F)cc2)n1
115	-20%	Cc1ccc(C)c(Cn2nnc3c(=O)[nH]c(C4CCN(C(=O)c5cccs5)CC4)nc32)c1
116	-7%	CN(C(=O)CN1C(=O)S/C(=C\c2ccccc2F)C1=O)C1CCS(=O)(=O)C1 (stereo not given)
117	-1%	O=C(CN1CCC(c2nc3ccccc3s2)CC1)NCc1cccs1
118	-11%	Cc1[nH]c2ccccc2c1C(=O)CSc1ccccc1
119	?	COc1cc(NS(C)(=O)=O)ccc1Nc1c2ccccc2nc2ccccc12
120	-16%	Cc1ccc(S(=O)(=O)NCc2cccnc2)cc1C(=O)NC1CCCCC1
121	-3%	COc1cc(C2C(C#N)=C(N)OC3=C2C(=O)CCC3)ccc1OC(=O)N1CCOCC1 (stereo not given)
